Screening results: PubChem, National Center for Advancing Translational Sciences (NCATS)
NS1 inh = qHTS Assay for Inhibitors of Influenza NS1 Protein Function; S. cerevisiae slowed by influenza A NS1, growth recovery by OD600; Potency, µM (titrated, usually from 46.1 µM), without a hit: at the top dose activity, positive = more growth; hit rate 0.4% among 270,000; active means well fitted rising curve with a large enough effect; inconclusive means small, poorly fitted or top-dose-only effect; inactive means no such curve, though single readings can be large or run the other way; also: nearly all actives have a fitted effect of over 50% in size
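S. cerevisiae expressing influenza A NS1, grown in glucose, washed, then diluted 1:100 into pH 6.0 -URA galactose medium with 23 nl compound. Growth recovery read as OD600; NS1-free strain serves as control.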
Cruzain Triton = qHTS Assay for Promiscuous and Specific Inhibitors of Cruzain (with detergent); Cruzipain (Trypanosoma cruzi), P25779; purified cruzain, Z-FR-AMC fluorescence, 0.01% Triton; Potency, µM, for the others: max response, negative = inhibition, usual class: inhibitors; hit rate 0.43% among 200,000;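 also: plate controls were neutral wells for no effect and buffer without enzyme for full effect; nearly all actives have a fitted effect of over 40% in size; top concentration of the series not given in the record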
Target sequence (P25779 123-467 limits assumed): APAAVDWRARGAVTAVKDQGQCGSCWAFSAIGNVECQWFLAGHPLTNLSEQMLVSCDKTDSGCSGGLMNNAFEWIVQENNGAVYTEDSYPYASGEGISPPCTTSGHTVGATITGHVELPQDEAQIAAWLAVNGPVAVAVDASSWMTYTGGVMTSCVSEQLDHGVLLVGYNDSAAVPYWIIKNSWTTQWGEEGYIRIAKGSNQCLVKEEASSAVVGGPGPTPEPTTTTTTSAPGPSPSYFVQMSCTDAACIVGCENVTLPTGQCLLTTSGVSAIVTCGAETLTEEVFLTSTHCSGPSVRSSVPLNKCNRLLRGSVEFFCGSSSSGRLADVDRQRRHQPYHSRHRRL
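Read-out: AMC fluorescence (360 nm excitation, 450 nm emission), four reads over 2 min, first-to-third difference used. Conditions: cruzain 1.5 nM, Z-FR-AMC 2 uM, pH 5.5 acetate, 5 mM DTT, 0.01% Triton X-100.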
RE007 growth inh = qHTS Assay for Inhibitors of the HIV-1 protein Vpr; S. pombe RE007 Vpr strain, BacTiter-Glo ATP luminescence, 24 h; control for the full effect not named in the record; Potency, µM (top dose mostly 92.2 µM), inactives show top-dose activity change, negative = less growth; hit rate 0.21% among 360,000; active = well fitted falling curve with a large enough effect; inconclusive = small, poorly fitted or top-dose-only effect; inactive = no such curve, though single readings can be large or run the other way;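 also: % is scaled to controls: 0 for no effect and ±100 for the full control effect; nearly all actives have a fitted effect of over 50% in size; the assay follows cell death caused by Vpr and the record does not say whether a fall means rescue or toxicity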
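Fission yeast strain RE007, carrying one chromosomally integrated HIV-1 vpr copy, was seeded at OD 0.01 in PMG+AL medium with 23 nL pinned compound. After 24 h at 30 °C and 99% humidity, viability was read by BacTiter-Glo luminescence.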
Cruzain inh noDet = qHTS Assay for Promiscuous and Specific Inhibitors of Cruzain (without detergent). Potency, µM, for the others: max response, negative = inhibition, most hits filed as inhibitors. hit rate 2.3% among 200,000. purified cruzain, Z-FR-AMC fluorescence, no detergent. Cruzipain (Trypanosoma cruzi), P25779;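 also: plate controls were enzyme without inhibitor for no effect and buffer without enzyme for full effect; nearly all actives have a fitted effect of over 40% in size; top concentration of the series not given in the record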
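Purified cruzain at 1.5 nM, pre-incubated 15 min with compound at room temperature in 100 mM sodium acetate pH 5.5, 5 mM DTT, 0.00005% Triton X-100. Reaction started with 2 uM Z-FR-AMC; AMC fluorescence increase over 60 s gives rate.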
Marburg entry inh = qHTS for inhibitors of binding or entry into cells for Marburg Virus. Marburg virus pseudotyped entry inhibition, cell reporter; control for the full effect not named in the record; about a third of the inactives were read at about 46 µM. Potency, µM (top dose mostly 37.8 µM), inactives show top-dose activity change, negative = inhibition, most hits filed as inhibitors. hit rate 1.8% among 300,000. AID 540276, 2011; active = well fitted inhibition curve with a large enough effect; inconclusive = small, poorly fitted or top-dose-only effect, or effect the other way; inactive = flat fitted curve, though single readings scatter; tested in HEK293 cells; about a fifth of its hits are not listed in these tables; also: % is scaled to controls: 0 for no effect and ±100 for the full control effect; luciferase read-out
LASV entry inh = qHTS for Inhibitors of binding or entry into cells for Lassa Virus. Lassa virus pseudotype entry inhibition, cell reporter; control for the full effect not named in the record. Potency, µM (top dose mostly 37.9 µM), for the others: at the top dose activity change, negative = inhibition, hits mostly inhibitors. hit rate 1.2% among 300,000. AID 540256, 2011; active means well fitted inhibition curve with a large enough effect; inconclusive means small, poorly fitted or top-dose-only effect, or effect the other way; inactive means flat fitted curve, though single readings scatter; tested in HEK293 cells; also: % is scaled to controls: 0 for no effect and ±100 for the full control effect; nearly all actives have a fitted effect of over 50% in size; luciferase read-out
SARS PLpro yeast = qHTS of Yeast-based Assay for SARS-CoV PLP; S. cerevisiae expressing SARS-CoV PLpro, growth rescue; control for the full effect not named in the record; Potency, µM (titrated, usually from 32.9 µM), without a hit: at the top dose activity, positive = growth rescue; hit rate 0.19% among 330,000; AID 485353, 2010; active means well fitted rising curve with a large enough effect; inconclusive means small, poorly fitted or top-dose-only effect; inactive means no such curve, though single readings can be large or run the other way; also: 0% is about no effect; nearly all actives have a fitted effect of over 55% in size; growth read by luminescence after 48 h
StopGo reporter = High Throughput Screening for Foot and Mouth Disease Virus Antivirals; human cells with a luciferase reporter of 2A StopGo recoding; control for the full effect not named in the record; Potency, µM (titrated, usually from 57.9 µM), for the others: top-dose signal change, negative = less light; hit rate 1.2% among 410,000; AID 1159524, 2015; active = well fitted falling curve with a large enough effect; inconclusive = small, poorly fitted or top-dose-only effect; inactive = no such curve, though single readings can be large or run the other way; tested in HEK293T cells; also: % is scaled to controls: 0 for no effect and ±100 for the full control effect; nearly all actives have a fitted effect of over 45% in size; luciferase light after 4 h
An asterisk follows results filed as active; ? = inconclusive; nt = no result given; & = joins results of further samples; [ ] = dose if it differs, or a comment. Unless noted, calls follow the shape of the dose curve; as a rule, active = well fitted curve in the direction sought with a large enough effect; inconclusive = small, poorly fitted or top-dose-only effect, or another doubt; inactive = no such curve, though single readings can be large; an effect the other way counts as inactive or inconclusive. Potency is read from the fitted curve at half-maximal effect.

SMILES	NS1 inh	Cruzain Triton	RE007 growth inh	Cruzain inh noDet	Marburg entry inh	LASV entry inh	SARS PLpro yeast	StopGo reporter
Cc1cc(C)n(-c2nnc(C)n2NC(=O)c2cccc(Cl)c2)n1	3.0%	-1.1%	-9.2%	4.4%	?	0.1%	9.0%	11.5%
CCOC(=O)N1CCC(NC(=O)Cn2c3ccccc3c3cn[nH]c(=O)c32)CC1	2.4%	0.0%	nt	8.5%	-8.1%	nt	7.4%	nt
CN1CCN(C(=O)/C(=C/c2cn(S(=O)(=O)N(C)C)c3ccccc23)NC(=O)c2ccccc2)CC1	-0.3%	nt	12.5%	nt	nt	nt	-0.5%	-0.4%
CCOc1ncccc1C(=O)Nc1nnc(C(CC)CC)s1	-5.3%	nt	0.3%	nt	nt	nt	-4.4%	-19.6%
O=C(Nc1cc(S(=O)(=O)N2CCCCC2)ccc1Cl)c1ccc(F)cc1	nt	nt	14.6%	nt	-0.9%	-10.0%	-20.0%	-15.5%
COc1ccc(Cl)cc1NC(=S)N(Cc1ccccc1C)CC1CCC(C(=O)O)CC1 (stereo not given)	nt	nt	5.8%	nt	?	?	-13.1%	-17.9%
Cc1nc(N2CCCCC2)c2c(C)c(C(=O)Nc3ccc4c(c3)OCCO4)sc2n1	-3.8%	nt	6.3%	nt	nt	nt	-27.3%	0.0%
COc1ccc(-c2cc(C(=O)Oc3cccc(C)c3C)c3ccccc3n2)cc1	nt	-1.4%	nt	-2.6%	nt	-1.7%[46.1 µM]	nt	-12.6%
CC(=O)N(c1ccccc1C)S(=O)(=O)c1ccc(Cl)cc1	5.4%	nt	-5.0%	nt	nt	nt	-0.9%	-11.2%
CCN(CC)CCCN1C(=O)C(=O)/C(=C(/O)c2ccc3c(c2)OCCO3)C1c1ccco1 (stereo not given)	-1.8%	-2.5%	2.7%	-9.1%	?	2.3%	-1.0%	50.9%[activator]
CC1CC(C(F)(F)F)n2nc(C(=O)O)cc2N1 (stereo not given)	1.5%	-0.6%	5.0%	6.1%	10.8%	1.4%	-1.7%	3.0%
Cn1c(SCC#N)nnc1-c1cccnc1	3.3%	1.0%	-6.2%	2.3%	?	0.7%	15.0%	-3.5%
COc1ccc(S(=O)(=O)N2CCN(Cc3ccccc3)CC2)cc1OC	-8.8%	nt	-13.9%	nt	nt	nt	2.2%	-26.4%
Cc1c(OCC(=O)N[C@H](C(=O)O)c2ccccc2)ccc2c3c(c(=O)oc12)CCCC3	15.9%	nt	0.3%	nt	nt	nt	1.3%	-12.2%
CCN(CC)C(=O)C1=C(C)Nc2nc3ccccc3n2C1c1cccc(Cl)c1 (stereo not given)	nt	-3.6%	nt	-8.8%	-8.9%[46.1 µM]	10.3%[46.1 µM]	nt	-27.9%
CCOC(=O)C1=C(N)Oc2c(c(=O)[nH]c3ccccc23)C1c1ccccc1 (stereo not given)	-5.3%	-0.4%	2.0%	?	1.6%	-18.2%	-5.5%	-23.7%
Cc1cc(C)n(-c2nc(Nc3ccccc3C(F)(F)F)nc(-n3nc(C)cc3C)n2)n1	16.6%	-4.1%	30.9%	?	10µM*	?	-6.5%	?
CN(C)Cc1ccccc1Sc1ccc2c(c1)CCCC2	nt	nt	-4.4%	nt	?	?	nt	0.0%
CCC(C)[C@H](NC(=O)NCC1CCCO1)C(=O)OC (stereo not given in full)	-5.5%	0.7%	0.4%	-5.3%	-0.3%	-3.5%	1.2%	12.2%
Cc1ccc(NC(=O)c2ccc(CNc3c(N4CCC(C)CC4)c(=O)c3=O)cc2)cc1	-4.3%	nt	3.2%	nt	3.6%[46.1 µM]	?	-2.6%	4.8%
O=C(O)C1CC(c2ccccc2)=NO1 (stereo not given)	2.7%	4.5%	2.0%	3.7%	-6.2%	6.4%	-0.1%	-9.7%
Cc1cccc(NC(=O)c2sc3nc(-c4ccccc4)cn3c2C)c1C	nt	0.2%	nt	-7.6%	nt	-13.0%[46.1 µM]	nt	27.7%
CCCCN(CCCC)CCNC(=O)c1cc(=O)[nH]c2ccc(S(=O)(=O)N3CCCCCC3)cc12	nt	4.3%	nt	-14.3%	nt	14.2%[46.1 µM]	nt	-13.1%
O=C(NCCCOc1ccc([N+](=O)[O-])cc1Cl)OCc1ccccc1	nt	nt	-18.2%	nt	-14.8%	3.4%[46.1 µM]	nt	-5.1%
C=CCn1c(N)c(C(=O)Nc2ccc(C)c(C)c2)c2nc3ccccc3nc21	7.8%	3.9%	8.6%	?	-5.8%	-4.6%	4.0%	-17.7%
CC1CCc2c(C(=O)Oc3cccc(-n4cnnn4)c3)csc2C1 (stereo not given)	-46.2%	-14.4%	7.6%	-17.7%	3.3%	14.6%	-11.0%	-0.9%
Cc1ccc2nc(-c3cccs3)c(Nc3c(C)cccc3C)n2c1	nt	-10.2%	nt	-7.5%	7.08µM*	-2.3%[46.1 µM]	nt	?
COc1ccc(OC)c(C(=O)NC(CC(N)=O)c2ccc(NCc3ccc(F)c(F)c3)c([N+](=O)[O-])c2)c1 (stereo not given)	24.1%	nt	15.3%	nt	nt	nt	-22.3%	-0.2%
CCOC(=O)C1CCN(C(=O)CNS(=O)(=O)c2ccc(Br)s2)CC1	-2.6%	2.8%	2.4%	9.1%	-2.0%	-1.7%	4.4%	17.2%
CCCCN(CC)S(=O)(=O)c1ccc(C(=O)N(CCCN(C)C)c2nc3cc(C)cc(C)c3s2)cc1	nt	nt	5.6%	nt	?	?	14.0%	?
O=C(COC(=O)c1ccccc1Br)Nc1ccc2[nH]c(=O)[nH]c2c1	nt	nt	5.0%	nt	14.0%	?	-0.2%	0.0%
Cc1cc([N+](=O)[O-])cc2c1NC(=O)C2(O)N1CCCCCC1 (stereo not given)	4.3%	-3.3%	-9.0%	-2.9%	-12.8%	-11.8%	-19.0%	-11.4%
Cc1ccc(S(=O)(=O)Nc2ccc3nc(-c4cccc(Cl)c4)oc3c2)cc1	nt	-5.4%	nt	6.7%	9.4%[46.1 µM]	?	nt	19.1%
CCCOc1ccccc1NC(=O)c1ccc([N+](=O)[O-])cc1	nt	nt	-10.1%	nt	3.8%[14.2 µM]	-0.9%	7.6%	-10.8%
O=C(N/N=C/c1ccc(O)cc1)c1csc2c1CCCC2	-0.8%	-8.9%	31.6%	-4.6%	13.9%	-0.8%	-6.0%	10.6%
CCc1nc(CNC(=O)C2CCC(=O)N(Cc3ccccc3F)C2)no1 (stereo not given)	-3.1%	nt	4.0%	nt	nt	nt	3.9%	-1.3%
Cc1nnc(NC(=O)CSc2nnc(Cc3cccn3C)n2CCc2ccccc2)s1	-9.3%	2.8%	-12.1%	27.2%	6.3%	8.2%	-1.2%	-12.5%
O=C(CCc1nc2ccccc2[nH]1)Nc1ccc2c(c1)OCO2	-2.1%	-1.2%	-3.8%	?	?	6.8%	-2.4%	0.8%
O=C(NC(Cc1c[nH]c2ccccc12)C(=O)OCC(=O)c1cccc2ccccc12)c1cccs1 (stereo not given)	23.2%	-3.7%	-0.1%	-20.7%	-1.7%	9.1%	1.9%	18.4%
COc1cccc(CNCCc2ccccc2)c1OC	nt	nt	4.5%	nt	?	?	-0.5%	-6.9%
O=C(CSc1nnc2c(n1)[nH]c1ccccc12)NCc1ccccc1F	0.2%	nt	-15.7%	nt	?	nt	-0.6%	-2.0%
COC(=O)c1ccc(OCC(O)Cn2nnc3ccccc32)cc1 (stereo not given)	-19.2%	-0.5%	-9.5%	0.5%	3.4%	14.5%	3.0%	25.9%
CC(=O)c1cccc(NC(=O)Cn2cc3c(n2)CCCC3)c1	-8.8%	-2.9%	0.5%	-5.9%	nt	nt	1.0%	-14.6%
CN(CCC#N)C(=O)CSc1nnc(-c2ccco2)n1N	nt	nt	4.9%	nt	3.5%[46.1 µM]	?	-1.9%	2.1%
Nc1nc(-c2c(Cl)cccc2Cl)no1	-0.8%	nt	9.5%	nt	nt	nt	0.8%	49.7%[activator]
COC(=O)CN1C(c2ccccc2O)Nc2ccc(Br)cc2C1c1ccccc1 (stereo not given)	-11.3%	-4.3%	-26.1%	5.7%	?	0.1%	-11.1%	-19.1%
CCNC(=S)NNC(=O)c1csc2c1CCC(C)C2 (stereo not given)	12.8%	3.4%	-6.3%	-0.6%	-4.0%	-0.3%	-2.3%	8.3%
C=CCN(c1ccccc1)S(=O)(=O)c1cccc(C(=O)NCC(c2ccc(F)cc2)N2CCOCC2)c1 (stereo not given)	nt	nt	0.0%	nt	?	?	-2.7%	-3.1%
O=C(Nc1ccc(-n2nncc2-c2ccco2)cc1)c1cccc(F)c1	-30.5%	-4.1%	9.6%	-15.3%	?	-10.5%	1.9%	?
COc1ccc(Cl)cc1NC(=O)CN(c1ccccc1)S(=O)(=O)N(C)C	3.0%	0.4%	27.1%	13.7%	?	?	nt	-16.6%

(next part)
SMILES	NS1 inh	Cruzain Triton	RE007 growth inh	Cruzain inh noDet	Marburg entry inh	LASV entry inh	SARS PLpro yeast	StopGo reporter
Cc1csc(SCC(=O)N2CCN(S(=O)(=O)c3ccc(Cl)cc3)CC2)n1	-11.2%	1.5%	nt	9.3%	-2.7%	nt	2.8%	15.7%
O=C(O)Cn1nnc(-c2ccc(OCc3ccccc3Cl)cc2)n1	-7.8%	nt	-13.9%	nt	9.4%[46.1 µM]	15.8%[46.1 µM]	5.9%	25.4%
CC12CC(O)C3c4ccc(O)cc4CCC3C1CCC2=O (stereo not given)	4.9%	nt	4.8%	nt	nt	nt	4.5%	2.8%
CN(C)CC(C)(C)CNS(=O)(=O)c1ccc(Cl)c(Cl)c1	10.0%	1.6%	2.8%&3.3%	-1.3%	?	-29.5%&0.6%	-0.2%&3.6%	-16.8%
O=C(NCc1ccc(F)cc1)C1CCCCN1S(=O)(=O)c1ccc(F)cc1 (stereo not given)	nt	0.2%	nt	-2.9%	nt	5.7%[46.1 µM]	nt	-15.3%
